Menin-MLL FL inh – displaces fluorescein MLL peptide from human menin. Fluorescence polarization, fluorescein-MLL peptide displacement from menin. FP activity change, % at 61.4 µM. 290,000 tested, under 10 active. AID 1766; inconclusive = falling polarisation curve, or a change in total fluorescence; inactive = total fluorescence flat and polarisation flat or rising; no compound was filed as active; the % refers to the polarisation; negative = inhibition;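 also: % of control where 0% means no effect; inhibitors lower the polarisation; unlabelled MLL peptide was the positive control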
CtBP-E1A inh – CtBP/E1A binding inhibition; 340,000 compounds, 0.49% hits; activity change, % (no concentration beside the values); AlphaScreen GST-E1A/His-CtBP binding, 1536-well; active compounds read low; control for the full effect not named in the record; in the data active means activity change below about -65%; inconclusive means about -30% to -65%; inactive means above about -30%; also: % is scaled to controls: 0 for no effect and ±100 for the full control effect
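Steps: dispense buffer (Tris pH 8.0, NaCl 300 mM, TCEP 1 mM, BSA, Tween 20); add 5X protein mix (GST-E1A, His-CtBP, 125 nM each); pin 23 nL compound; 2 h at 37 °C, dark; add 5X beads (50 ug/mL); 1 h; read.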
ClpP mod – qHTS Assay for Activators of ClpP; purified B. subtilis ClpP, FRET peptide cleavage, 20 min; 340,000 compounds, 1.9% hits; Potency, µM (titrated, usually from 57.5 µM), for the others: at the top dose activity change, negative = active; AID 651965, 2013; ATP-dependent Clp protease proteolytic subunit (Bacillus subtilis (strain 168)), P80244; active = well fitted falling curve with a large enough effect; inconclusive = small, poorly fitted or top-dose-only effect; inactive = no such curve, though single readings can be large or run the other way; also: potency is read from the fitted curve at half-maximal effect; the source files actives as falling curves though it sought activators and does not explain the sign; nearly all actives have a fitted effect of over 65% in size; many hits overshoot -100%
Target sequence (P80244 whole entry, looked up): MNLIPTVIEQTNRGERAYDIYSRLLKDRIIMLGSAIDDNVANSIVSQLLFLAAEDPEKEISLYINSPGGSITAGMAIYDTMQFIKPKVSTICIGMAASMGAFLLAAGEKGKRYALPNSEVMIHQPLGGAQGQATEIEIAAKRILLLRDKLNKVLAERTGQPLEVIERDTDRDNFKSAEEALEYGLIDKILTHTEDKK
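Purified B. subtilis ClpP, 10 microg/mL final in Tris/HCl pH8 with KCl, BSA, glycerol and Tween-20, cleaved an Abz/nitrotyrosine-quenched decapeptide. Fluorescence (ex 320, em 430) was read at 0 and 20 min at room temperature. Delta was normalized to 5.8 microM ADEP and DMSO/no-enzyme controls.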
gsp agonist – gsp mutant agonism. gsp mutant cells, cAMP HTRF, 30 min; control for the full effect not named in the record. Potency, µM (doses to about 76.9 µM), for inactives: at the top dose activation (cAMP increase), actives largely listed as activators. 340,000 compounds, 0.13% hits. AID 624287; active = well fitted activation curve with a large enough effect; inconclusive = small, poorly fitted or top-dose-only effect, or another doubt; inactive = no such curve, though single readings can be large or run the other way; cell line not stated here;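 also: phosphodiesterase inhibitor Ro 20-1724 added with compounds to block cAMP breakdown; potency is read from the fitted curve at half-maximal effect; nearly all actives have a fitted effect of over 60% in size; about a fifth of the inactives were tested at one dose only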
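Cells stably selected in G418 were plated at 2000/well, grown 16-24 hr, then given compounds in DMSO with the PDE inhibitor […] (300 uM solution added) for 30 min at 37C; cAMP was read by HTRF.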
gsp antag – gsp mutant antagonism; gsp-mutant cells, cAMP HTRF, 30 min; control for the full effect not named in the record; Potency, µM (titrated, usually from 76.9 µM), for inactives: top-dose activity change, negative = inhibition, actives largely listed as inhibitors; 340,000 compounds, 0.4% hits; AID 624288; active = falling curve of any shape with a large fitted effect; inconclusive = falling curve, mostly with a smaller effect; inactive = flat or rising curve; cell line not stated here;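 also: intracellular cAMP measured with PDE inhibitor Ro 20-1724 present during compound exposure; potency is read from the fitted curve at half-maximal effect; % is scaled to controls: 0 for no effect and ±100 for the full control effect; nearly all actives have a fitted effect of over 65% in size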
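HTRF cAMP read-out (cAMP-d2 plus anti-cAMP antibody-K in lysis buffer, 30 min RT). Before lysis, cells are exposed to compounds with […] for 30 min at 37C in DPBS containing Ca/Mg, BSA and Tween 20.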
Sfp PPTase inh – blocks B. subtilis Sfp PPTase activity; Q9F4F7; Biochemical Sfp PPTase activity, qHTS; Potency, µM, inactives show max response, negative = inhibition, actives largely listed as inhibitors; 310,000 compounds, 3.5% hits; AID 1490; active = well fitted inhibition curve with a large enough effect; inconclusive = small, poorly fitted or top-dose-only effect, or another doubt; inactive = no such curve, though single readings can be large or run the other way;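 also: the enzyme is Sfp with the accession as filed and its product quenches rhodamine fluorescence; potency is read from the fitted curve at half-maximal effect; 0% = enzyme reaction without inhibitor and -100% = no enzyme wells; top concentration of the series not given in the record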
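After 15 min at room temperature with compound, 15 nM Sfp received 5 uM rhodamine-CoA plus 12.5 uM BHQ-2-ybbR (50 mM Hepes pH 7.6, 10 mM MgCl2). Rate came from the fluorescence difference over 30 min, ex 525/em 598 nm.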
TRPV1 PAM – enhances activation of the human vanilloid receptor TRPV1; AID 540277; potentiation, % at 8.33 µM; TRPV1-expressing cells, Fluo-8 calcium influx, capsaicin EC20 potentiation; host cell line not named in the record; control for the full effect not named in the record; 320,000 compounds, 0.02% hits; Q8NER1; active means potentiation above 80%; inconclusive means 30% to 80%; inactive means below 30%; also: 0% is about no effect
Target sequence (Q8NER1 whole entry, looked up): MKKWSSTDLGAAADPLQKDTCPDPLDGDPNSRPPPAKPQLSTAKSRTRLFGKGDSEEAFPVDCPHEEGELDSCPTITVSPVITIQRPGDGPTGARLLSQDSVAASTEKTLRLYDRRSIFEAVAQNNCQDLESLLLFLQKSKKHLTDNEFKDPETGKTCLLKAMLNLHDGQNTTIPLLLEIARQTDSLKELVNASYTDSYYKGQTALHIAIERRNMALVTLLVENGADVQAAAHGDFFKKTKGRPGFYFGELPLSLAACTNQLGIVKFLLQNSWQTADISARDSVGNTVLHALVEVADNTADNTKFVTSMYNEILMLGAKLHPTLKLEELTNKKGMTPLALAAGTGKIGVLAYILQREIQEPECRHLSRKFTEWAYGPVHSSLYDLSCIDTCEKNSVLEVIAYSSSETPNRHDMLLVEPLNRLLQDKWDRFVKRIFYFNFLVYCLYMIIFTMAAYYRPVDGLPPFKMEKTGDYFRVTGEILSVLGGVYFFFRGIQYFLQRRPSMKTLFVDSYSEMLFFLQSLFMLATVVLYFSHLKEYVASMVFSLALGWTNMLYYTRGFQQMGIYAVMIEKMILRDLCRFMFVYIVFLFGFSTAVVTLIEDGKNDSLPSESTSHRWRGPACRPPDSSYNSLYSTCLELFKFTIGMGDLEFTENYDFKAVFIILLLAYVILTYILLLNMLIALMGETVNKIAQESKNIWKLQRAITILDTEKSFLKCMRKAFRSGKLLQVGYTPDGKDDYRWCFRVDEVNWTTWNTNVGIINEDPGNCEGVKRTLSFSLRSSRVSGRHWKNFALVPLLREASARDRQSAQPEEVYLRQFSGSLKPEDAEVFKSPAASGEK
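Cells expressing TRPV1 were dye-loaded with Fluo-8 and read kinetically: 10 s baseline, 3 min after compound (agonist portion), then 2 min after EC20 capsaicin (allosteric enhancer portion). Calcium-bound dye fluorescence at 480/520 nm.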
Starred values were filed as active, the others as inactive; ? = inconclusive; · = no result given; [ ] = dose if it differs, or a comment.

mol,Menin-MLL FL inh,CtBP-E1A inh,ClpP mod,gsp agonist,gsp antag,Sfp PPTase inh,TRPV1 PAM
Cc1ccc(C)c(N(CC(=O)NCc2ccco2)C(=O)CCC(=O)Nc2nccs2)c1,4.2,0.6,·,-16.3%[15.4 µM],-6.9%,9.3%,-21.0
CCOC(=O)COc1cc2c(C(=O)OCC)c(C)oc2cc1Br,-2.3,13.1,0.9%,16.5%,-14.0%,9.8%,-5.8
Cc1nn(C)c(Cl)c1/C=N/OC(=O)c1ccc(F)cc1,4.7,7.9,-0.6%,6.0%,-4.0%,-4.4%,-0.6
N#Cc1nc(-c2ccc(OCc3ccccc3)cc2)oc1N1CCOCC1,1.9,0.8,28.2µM*,-0.8%,-18.8%,-3.1%,3.6
COc1ccc(-c2cc(C(=O)OCC(=O)N(C)C)c3ccccc3n2)cc1,2.6,10.7,?,-3.9%,-32.7%,-5.3%,-15.3
CCCc1cnc(N2CCN(C(=O)c3ccc(OC)cc3)CC2)nc1,6.4,-0.2,-1.8%,8.6%[15.4 µM],-18.6%,8.4%,8.2
O=C1CN(C(=O)COc2cccc(F)c2)c2ccccc2N1,-1.2,·,·,·,·,1.1%,-1.9
CCC(C)(C(=O)NC1CCCCC1)N(Cc1cccs1)C(=O)c1ccccn1 (centres undefined),-2.3,6.4,·,0.2%[15.4 µM],5.2%,8.4%,3.2
CCOc1ccc(Nc2nc(N3CCOCC3)nc(N3CCOCC3)n2)cc1,-0.8,-14.5,-3.3%,8.6%[15.4 µM],-3.7%,14.7%,0.0
COc1ccc(Oc2ccc(NC(=O)c3ccccc3C)cc2)cc1,-0.2,1.7,·,-9.9%[15.4 µM],7.4%,23.0%,-9.0
CC(C)C[C@H](NC(=O)Nc1cccc(Cl)c1)C(=O)O,3.2,-1.3,-1.6%,-20.9%,6.2%,7.4%,18.0
CCCn1c(=O)[nH]c(=O)c2c1nc(-c1ccccc1OC(F)F)n2CCOC,3.6,-3.3,25.1µM*,-9.9%,-4.2%,17.4%,-7.0
O=C(O)CC1SC(=Nc2cccc(O)c2)NC1=O (centres undefined),2.3,-6.3,-0.3%,-5.3%,7.2%,11.0%,-3.1
CC(C)N(Cc1cc2ccccc2[nH]c1=O)C(=O)C1CCCCC1,1.4,-2.9,?,-0.4%,-6.5%,-0.3%,-3.4
O=C1c2ccccc2-c2nc3ncnn3c(-c3ccccc3Cl)c21,1.5,3.3,0.9%,-5.0%,18.6%,-5.2%,·

Two of these compounds in a different format:
Values run as follows: Menin-MLL FL inh | CtBP-E1A inh | ClpP mod | gsp agonist | gsp antag | Sfp PPTase inh | TRPV1 PAM
CCCc1cnc(N2CCN(C(=O)c3ccc(OC)cc3)CC2)nc1
→ 6.4 | -0.2 | -1.8% | 8.6%[15.4 µM] | -18.6% | 8.4% | 8.2
O=C1CN(C(=O)COc2cccc(F)c2)c2ccccc2N1
→ -1.2 | · | · | · | · | 1.1% | -1.9

The results go on.
mol,Menin-MLL FL inh,CtBP-E1A inh,ClpP mod,gsp agonist,gsp antag,Sfp PPTase inh,TRPV1 PAM
COc1ccccc1COC(=O)N/C=C/c1ccco1,?,0.0,·,-2.6%,3.3%,?,-2.8
O=C1C=CC(O)(c2cc(=O)c3c(O)cc(O)cc3o2)C=C1,0.5,-8.3,0.2%,·,-5.5%,?,?
CCOC(=O)C1=C(CC)Nc2ccccc2N=C1NC(=O)c1cc(S(=O)(=O)N2CCOCC2)ccc1C,·,-14.1,-0.7%,?,-11.1%,·,·
C[C@H](CO)N1C[C@H](C)[C@@H](CN(C)S(=O)(=O)c2cn(C)cn2)Oc2ccc(NC(=O)C3CCCCC3)cc2C1=O,·,-0.5,-2.9%,·,6.9%,·,·
CCOc1ccc2c(C)c(C)c(=O)oc2c1OCC,-2.1,10.9,?,-17.0%,0.9%,6.9%,-8.8
Cc1onc(-c2ccccc2)c1C(=O)OCC(=O)Nc1ccc(OC(F)(F)F)cc1,·,18.7,0.3%,-13.4%,-3.5%,·,9.9
O=C(Cn1cc2c(n1)CCCCC2)NCCN1CCOCC1,0.2,9.8,1.2%,-27.1%,6.1%,-8.3%,3.7
COc1ccc(N2C(=O)c3ccccc3NC2c2ccc(NC(C)=O)cc2)c(OC)c1 (centres undefined),1.6,0.2,-0.5%,15.6%[15.4 µM],1.1%,1.7%,-13.3
CC(C)S(=O)(=O)c1cnc(-c2cccnc2)nc1N,3.9,1.3,·,?,2.6%,5.7%,-7.9
Cc1cc(C)n2nc(C(=O)NC(C)(C)C)nc2n1,1.5,1.4,-0.7%,5.5%,7.1%,8.4%,-2.9
CC1(C)Cc2cccc(OCC(=O)N3CCN(c4cccc(C(F)(F)F)c4)CC3)c2O1,·,-2.0,-0.4%,-10.3%,-28.3%,·,-5.6
COc1ccc(S(=O)(=O)N2CCCCC2)cc1NS(=O)(=O)c1cc(Cl)ccc1Cl,·,-4.7,-9.3%,16.3%,34.0%[activator],14.5%,-35.2
CCCCN1C=C(C(=O)OC)C(c2ccccc2C(F)(F)F)C(C(=O)OC)=C1,0.1,11.9,31.6µM*,13.0%,14.1%,25.4%,-17.7
COc1ccc(S(=O)(=O)n2nc(OC(C)=O)cc2N)cc1,-2.2,-8.7,1.7%,?,1.2%,0.4%,29.2
CC1CCN(Cc2nc(-c3ccc(Cl)cc3)no2)CC1,0.2,9.9,·,?,12.7%,3.8%,2.6

Ordered by value in Sfp PPTase inh (highest first): 4 from the list above.
structure | Sfp PPTase inh
CCCCN1C=C(C(=O)OC)C(c2ccccc2C(F)(F)F)C(C(=O)OC)=C1 | 25.4%
COc1ccc(S(=O)(=O)N2CCCCC2)cc1NS(=O)(=O)c1cc(Cl)ccc1Cl | 14.5%
CC(C)S(=O)(=O)c1cnc(-c2cccnc2)nc1N | 5.7%
O=C(Cn1cc2c(n1)CCCCC2)NCCN1CCOCC1 | -8.3%

(cont.)
Structure | Menin-MLL FL inh | CtBP-E1A inh | ClpP mod | gsp agonist | gsp antag | Sfp PPTase inh | TRPV1 PAM
Cc1ccc(CN(C)C(=O)c2ccccc2Sc2ccccc2C#N)cc1 | · | 5.0 | -0.5% | -27.4% | -22.0% | -22.5% | -8.4
COc1ccccc1-c1c(C)nn2c(N3CCN(c4ccccc4OC)CC3)cc(C)nc12 | 3.3 | 0.5 | -22.9% | -27.1% | 2.4% | -7.0% | 0.5
CC(=O)N/C(=C\c1ccccc1)C(=O)OCCCOC(=O)/C(=C/c1ccccc1)NC(C)=O | · | -5.5 | 0.8% | -28.6% | -6.4% | 17.3% | -2.4
Nc1nc(CN2CCCCCC2)nc(Nc2ccc(F)cc2)n1 | 6.8 | -21.4 | -1.2% | 5.9% | 12.6% | -20.5% | 30.0
CC(C)COC(=O)NCCCOC(=O)Nc1ccccc1 | 1.7 | 6.1 | 0.7% | -5.5% | -31.6% | 6.8% | 7.9
COc1ccc(NC(=O)c2cc(C(C)C)on2)cc1OC | 3.3 | 5.3 | -1.6% | -47.9% | -3.6% | 20.0% | 4.2
COc1ccc(OC)c(-c2csc(NC(=O)Cn3[nH]c(=O)c4ccccc4c3=O)n2)c1 | ? | 0.0 | -0.1% | -11.7%[15.4 µM] | -10.7% | 6.8% | 10.0
COCCCN(CC(=O)NCc1ccccc1)S(=O)(=O)c1ccc(C)cc1 | -1.0 | -5.0 | -0.1% | ? | 4.2% | 6.9% | -5.4
O=C(c1coc(=O)c(Br)c1)N1CCOCC1 | 20.5 | 4.4 | -5.0% | -61.2%[inhibitor] | 4.3% | 5.9% | -4.1
Cc1cccc(C)c1NC(=O)CN(C)C(=O)c1ccc(OCc2ccccc2)cc1 | · | 0.5 | 0.5% | -27.0% | · | · | ·
COCCn1c(SCC(=O)N2CCOCC2)nnc1-c1ccco1 | -5.1 | 9.3 | · | -9.9%[15.4 µM] | 6.6% | 12.7% | 1.2
Brc1ccsc1-c1csc(-c2ccncc2)n1 | -2.5 | · | -5.1% | 17.8µM* | -2.8% | -10.1% | -13.5
O=C(COC(=O)C1CC2C=CC1C2)NCc1ccccc1Cl (centres undefined) | 7.0 | -6.2 | -1.3% | -4.1% | 12.7% | -8.9% | -10.5
C=CCSc1nc(N)c(C(=O)Nc2ccccc2C)cc1C(N)=O | 5.6 | 0.7 | -3.7% | 5.6% | -10.9% | -7.3% | ·
CC(=O)Nc1ccc(NC(=O)C(C)OC(=O)CCc2nc3ccccc3s2)cc1 (centres undefined) | -1.0 | -1.4 | · | 7.3%[15.4 µM] | -5.6% | 11.9% | 3.6
Cc1ccc(C(=O)Nc2ccccc2N2CCCCC2)o1 | · | 9.1 | -4.9% | 2.5% | -17.9% | -11.7% | -2.7
CCOC(=O)c1cc(Sc2ccccc2N)cc(C(=O)OCC)n1 | -0.1 | -2.0 | · | -9.6%[15.4 µM] | 0.6% | 2.1% | 2.0
CSc1ccc(CN(C)C(C)C(=O)NCC2CCCCC2)cc1 (centres undefined) | 0.3 | 3.7 | · | -30.5% | -10.2% | 11.3% | -9.1
